# Screening data as filed in PubChem.
# A488 autofl = qHTS Assay for Spectroscopic Profiling in A488 Spectral Region. compound autofluorescence, A488 spectral region, dye equivalency; active compounds read high. max dye equivalency, M. 59,000 compounds, 0.1% hits; active = above 10 nM dye equivalent; inconclusive = 1 to 10 nM; inactive = 1 nM or less; about half of its hits are not listed in these tables;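 also: highest value over a series up to 38 µM; compound alone in buffer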
#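 Readout is A488 dye-equivalent concentration, calibrated by a per-plate six-point Alexa 488 series. Compounds in 100 mM Tris buffer pH 8.0 were incubated 15 min at room temperature. Plates were imaged using 480 nm excitation/540 nm emission filters.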
# TSHR ag = qHTS Assay for Agonists of the Thyroid Stimulating Hormone Receptor | Thyrotropin receptor (Homo sapiens), P16473 | HEK293-CNG-TSHR cells (CNG channel as cAMP sensor), membrane potential dye, cAMP | Potency, µM (highest dose often 57.1 µM), without a hit: at the highest dose activation, actives largely listed as activators | 73,000 compounds, 0.48% hits | AID 926, 2007; active = well fitted activation curve of enough size with the parental cells flat; inconclusive = any curve in the parental cells; inactive = parental cells flat and receptor cells flat or falling; also: potency is read from the fitted curve at half-maximal effect; % of control where 0% means no effect; weak receptor curves with flat parental cells got no call and are not listed
# Target sequence (P16473 whole entry, looked up): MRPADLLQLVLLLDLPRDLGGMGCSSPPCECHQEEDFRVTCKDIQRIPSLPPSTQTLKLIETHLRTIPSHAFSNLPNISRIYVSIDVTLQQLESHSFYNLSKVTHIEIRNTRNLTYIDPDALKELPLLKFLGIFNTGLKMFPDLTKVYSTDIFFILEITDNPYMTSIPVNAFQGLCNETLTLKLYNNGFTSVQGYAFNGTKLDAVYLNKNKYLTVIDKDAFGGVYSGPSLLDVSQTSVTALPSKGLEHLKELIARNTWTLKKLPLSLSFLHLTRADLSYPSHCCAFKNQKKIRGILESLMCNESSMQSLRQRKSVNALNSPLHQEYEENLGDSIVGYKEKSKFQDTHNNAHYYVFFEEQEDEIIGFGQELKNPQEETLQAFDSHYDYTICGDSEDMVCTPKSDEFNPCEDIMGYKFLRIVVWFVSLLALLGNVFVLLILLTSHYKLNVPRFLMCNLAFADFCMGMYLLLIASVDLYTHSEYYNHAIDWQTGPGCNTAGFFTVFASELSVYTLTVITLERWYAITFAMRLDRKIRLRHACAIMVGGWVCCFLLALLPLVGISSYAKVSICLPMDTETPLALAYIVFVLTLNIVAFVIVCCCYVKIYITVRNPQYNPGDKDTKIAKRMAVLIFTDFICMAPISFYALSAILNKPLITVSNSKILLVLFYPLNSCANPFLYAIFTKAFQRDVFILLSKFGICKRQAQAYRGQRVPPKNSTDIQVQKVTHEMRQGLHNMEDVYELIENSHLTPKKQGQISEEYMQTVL
#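 cAMP rise detected as CNG-channel membrane depolarization by fluorescent dye (emission 590 nm), 30 min after compound, following 60 min dye loading containing 100 uM RO 20-1724 at room temperature. Cells: TSHR/CNG HEK 293, with parental CNG HEK 293 as control.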
# Resorufin autofl = qHTS Assay for Spectroscopic Profiling in Resorufin Spectral Region | 59,000 compounds, 0.04% hits | Compound fluorescence, resorufin region 547/598 nm, buffer; active compounds read high | max dye-equivalent concentration, M; active = above 10 nM dye equivalent; inconclusive = 1 to 10 nM; inactive = 1 nM or less; a few of its hits are not listed in these tables; also: highest value over a series up to 38 µM
#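 Compounds in 100 mM Tris, pH 8.0, incubated 15 min at room temperature, then fluorescence read at 547 nm excitation/598 nm emission. Signal converted to dye-equivalent concentration via an on-plate six-point resorufin standard curve, per compound concentration.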
# A647 autofl = qHTS Assay for Spectroscopic Profiling in A647 Spectral Region. Compound fluorescence, A647 channel (570/671 nm), Tris buffer. max dye-equivalent concentration, M. 59,000 tested, under 10 active; active means above 1 µM dye equivalent; inconclusive means 0.1 to 1 µM; inactive means 0.1 µM or less;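 also: values scaled relative to a standard on each plate; highest value over a series up to 38 µM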
#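 Compound fluorescence was measured in 100 mM Tris buffer, pH 8.0, after 15 min at room temperature, using 570 nm excitation and 671 nm emission filters. Signal was normalized to a per-plate Alexa 647 standard curve and expressed as dye-equivalent concentration at each compound concentration.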
# AID923 = qHTS Assay for Allosteric/Competitive Inhibitors of Caspase-1: Spectroscopic Profiling in AFC Spectral Region. Potency, µM (titrated, usually from 57.5 µM), for the others: at the top dose fluorescence increase, usual class: activators. AID 923, 2007. compound fluorescence, AFC spectral region (405/520 nm); almost no hit is shown here. 75,000 compounds, 1.1% hits; active = well fitted activation curve with a large enough effect; inconclusive = small, poorly fitted or top-dose-only effect;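 also: potency is read from the fitted curve at half-maximal effect; 0% is about no effect; scaled to a free AFC standard on each plate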
#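 Compound autofluorescence profiled at 405 nm ex/520 nm em during kinetic caspase 1 run (50 nM enzyme, 5 uM Ac-WEHD-AFC, HEPES pH 7.5, 10 mM DTT). Titration up to 57 uM; baseline from regression intercept, normalized to AFC standard curve.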
# Numbers without * were called inactive; i = inactive; ? = inconclusive; . = no result given; & = joins results of further samples; [ ] = remark or other dose. A portion of the library; count on the stated rates, not on these rows.
SMILES,A488 autofl,TSHR ag,Resorufin autofl,A647 autofl,AID923
O=C(CCN1C(=O)C2C3C=CC(C3)C2C1=O)N1CC(=O)N(CCc2ccccc2)C(=O)C1 (stereo not drawn),i,-2%,i,1.4e-08,1.1%
Cc1ccccc1-c1nc(CS(=O)(=O)CC(=O)N2CCc3ccccc32)c(C)o1,.,2%,.,.,3.6%
COc1ccccc1NC(=O)CN1CCN(c2ccccc2F)CC1,i,12%,i,3.4e-08,0.6%
CCOC(=O)N1CCC(Nc2cccc(SC)c2)CC1,.,14%,.,.,-1.5%
Cc1ccc2nc(NC3=NCN(CCc4ccccc4)CN3)nc(C)c2c1,i,7%,i,3.4e-08,-0.3%
O=C(c1cnn2c1NC(c1ccco1)CC2C(F)(F)F)N1CCN(c2cccc(Cl)c2)CC1 (stereo not drawn),i,5%,i,1.7e-08,-0.5%
CCN(CC(=O)Nc1ccc2c(c1)OCCO2)C(=O)C1CCCCC1,i,0%,i,7.2e-08,-0.8%
CNC(=O)CSc1nnc(-c2ccncc2)n1Cc1ccccc1,i,5%,i,3.4e-08,1.3%
CN1CCN(C(=O)c2ccc(N(Cc3ccc(Cl)cc3)S(C)(=O)=O)cc2)CC1,i,1%,i,4.4e-09,0.1%
COc1ccc(CNc2ccc(S(N)(=O)=O)cc2)c(OC)c1OC,i,2%,i,2.2e-08,-0.3%
CC(C)NS(=O)(=O)c1ccc(CCC(=O)O)cc1,i,0%,i,1e-09,0.6%
CCCn1c(N)c(C(=O)CSc2nc3ccccc3n2CCC#N)c(=O)n(C)c1=O,i,3%,i,1e-09,-0.5%
CCOC(=O)C1CCN(c2c(NCCN3CCCCC3C)c(=O)c2=O)CC1 (stereo not drawn),.,-1%,.,.,-0.8%
O=c1c2c3c(sc2nc2n1CCC2)CCC3,i,?,i,1.1e-09,1.8%
Cc1cc(=O)[nH]c(SCCOc2ccc(OC(C)C)cc2)n1,i,23%,?,1.7e-08,-2.2%
CC(=O)Nc1ccc(S(=O)(=O)n2nc(-c3ccc(C)cc3)nc2N)cc1,i,-6%,i,1.1e-08,0.7%
O=C(Nc1nnc(COc2ccc(Cl)cc2)s1)c1cccs1,i,5%,i,2.9e-08,0.5%
CCCCCCN(C(=O)CCCCCN1C(=O)NC(c2ccc3ccccc3c2)C(C(=O)OCc2ccccc2)=C1C)C(C(=O)NCCCC)c1ccc(OCC(=O)OC)c(C(=O)OC)c1 (stereo not drawn),.,8%,.,.,2.1%
CN(C)C/C(Cl)=C(\Cl)c1ccccc1,i,.,i,2.4e-08,.
CCCCOc1ccc(NC(=O)Cn2c(=O)ccc3c(C)cc(C)nc32)cc1,i,?,i,1e-09,-1.4%
CCn1c(SCC(=O)Nc2ccc3c(c2)OCO3)nnc1-c1ccccc1O,i,1%,i,2.4e-08,0.0%
O=S(=O)(NC1CC1)c1ccc(S(=O)(=O)N2CCCC(c3nc(-c4cccnc4)no3)C2)cc1 (stereo not drawn),i,0%,i,2.1e-09,1.8%
O=C(O)c1cc(Cl)c2ccccc2c1O,i,20%,i,1e-09,-1.5%
O=C(OCc1nc2ccccc2s1)C1CCN(C2=NS(=O)(=O)c3ccccc32)CC1,i,.,i,2.7e-09,1.1%
O=C(c1ccccc1F)N1CCN(S(=O)(=O)c2ccc3c(c2)OCCO3)CC1,.,6%,.,.,-2.7%

# Rewritten with two lines to a compound: part of the list above
# Fields – A488 autofl	TSHR ag	Resorufin autofl	A647 autofl	AID923
- O=C(Nc1nnc(COc2ccc(Cl)cc2)s1)c1cccs1
  i	5%	i	2.9e-08	0.5%
- CCOC(=O)C1CCN(c2c(NCCN3CCCCC3C)c(=O)c2=O)CC1 (stereo not drawn)
  .	-1%	.	.	-0.8%
- CCCCOc1ccc(NC(=O)Cn2c(=O)ccc3c(C)cc(C)nc32)cc1
  i	?	i	1e-09	-1.4%
- CCCn1c(N)c(C(=O)CSc2nc3ccccc3n2CCC#N)c(=O)n(C)c1=O
  i	3%	i	1e-09	-0.5%

# More compounds:
SMILES,A488 autofl,TSHR ag,Resorufin autofl,A647 autofl,AID923
COC(=O)C1=C(C)N(Cc2ccccc2)[C@]23O[C@](C(=O)OC)(C(=O)N2C1c1ccccc1)C1CCCC(=O)C13 (stereo partly drawn),.,0%[11.4 µM],.,.,-0.1%&-2.4%[11.5 µM]
Cc1nc(NCc2ccccc2)c2nc(-c3ccccc3)n(C3CCN(Cc4ccccc4)C3)c2n1 (stereo not drawn),.,15%,.,.,3.8%
COc1ccc(N=C2SC(CC(=O)Nc3ccccc3)C(=O)N2CC2CCCO2)cc1 (stereo not drawn),i,-3%,i,1e-09,-1.4%
O=C(O)C1CCCCC1C(=O)NCCc1ccncc1 (stereo not drawn),i,1%,i,1.7e-08,0.2%
N[C@H](C(=O)O)c1nn[nH]n1,.,7%,.,.,-3.1%
Cc1c(NC(=O)NC(C)N2C(=O)C3C4C=CC(C4)C3C2=O)c(=O)n(-c2ccccc2)n1C (stereo not drawn),i,0%,i,2e-09,-0.5%
Cc1cc(C(=O)NC2=NCCS2)cs1,i,1%,i,1.1e-08,-1.2%
CCC(=O)Nc1cccc(-n2nnnc2SCC(=O)NCc2ccco2)c1,i,3%,i,1e-09,1.5%
CCOC(=O)c1c(-c2ccc(C)o2)csc1NC(=O)CSc1nncs1,i,?,i,4e-09,1.3%
Cn1c(SCC(=O)Nc2ccc3c(c2)OCO3)nnc1-c1cnccn1,i,7%,i,3e-08,-2.0%
CC(=O)N1CCN(Cc2nc3cc(NS(C)(=O)=O)ccc3n2C)CC1,i,22%,i,2.9e-08,-0.4%
COC(=O)[C@@H](NC(=O)NCc1cccc(OC)c1)C(C)C,i,-3%,i,2.8e-08,1.1%
COc1ccc(NC(=O)CN2CCN(c3ccc(F)cc3)CC2)cc1Cl,i,?,i,3.7e-08,-3.4%
COc1ccc(CC(=O)Nc2nc(C)cs2)cc1OC,i,?,i,3.4e-08,1.5%
CCCCc1nccn1CCn1ccnc1CCCC,i,12%,i,2.7e-09,-1.0%
C/C(CCC(=O)OC[C@@H]1O[C@H](C#Cc2ccccc2)C=C[C@@H]1Oc1ccc(C)cc1)=N/O[C@@H](C)c1cn([C@H]2COC[C@H]2O)nn1,.,9%[11.4 µM],.,.,-1.5%[11.5 µM]
Cn1c(C(=O)Nc2ccc3c(c2)OCCO3)cc2c(=O)n(C)c3ccccc3c21,.,6%,.,.,2.8%
Cc1ccc(NC(=O)CN2CCCCCC2)c(Br)c1,i,10%,i,1e-09,-0.3%
CSCCC(NC(=O)c1ccco1)C(=O)O (stereo not drawn),i,2%,i,1.1e-09,-0.5%
Cc1ccc(S(=O)(=O)N(C)CC(=O)N2CCN(C(=O)c3ccco3)CC2)cc1,i,4%,i,1.7e-08,-0.1%
COCCn1c(=O)[nH]c2cc(C(=O)NCCN3CCN(c4ccccc4)CC3)ccc2c1=O,i,-1%,i,1e-09,0.9%
O=C(c1ccc(=O)oc1)N1CCN(c2ccc(F)cc2)CC1,i,.,i,4.8e-09,.
CCN(CC)c1ccc(-c2nc3cnccc3n2C)cc1,i,-8%,i,5.1e-09,-0.2%
O=S(=O)(c1ccc(F)cc1)c1nc(-c2ccc(F)cc2)oc1NCCN1CCOCC1,i,-1%,i,3.6e-08,0.6%
Cc1ccc(Cl)cc1N1CCN(Cc2nnnn2Cc2ccco2)CC1,i,?,i,4.3e-09,-2.0%

# Following part
SMILES,A488 autofl,TSHR ag,Resorufin autofl,A647 autofl,AID923
CN(C)C(=O)c1ccc(-c2nc(-n3ccnc3)c3ccccc3n2)cc1,i,0%,i,1.7e-09,1.2%
CC1CCc2nn(CC(=O)N3CCCCCC3)cc2C1 (stereo not drawn),.,-3%,.,.,1.0%
c1ccc(-c2csc3nnc(SCc4ccc5c(c4)OCO5)n23)cc1,.,?,.,.,1.5%
C=CCSc1nnc2n(-c3ccccc3OC)c(=O)c3c4c(sc3n12)CCC4,i,.,i,1e-09,.
Cc1nc(N2CCOCC2)c2cc(-c3ccccc3)sc2n1,i,?,i,6.3e-09,-5.6%
CCc1cc(=O)oc2cc3oc(C)c(C)c3cc12,i,?,i,5.8e-09,1.3%
O=C(CN1CCN(Cc2ccccc2)CC1)NC(=O)NCc1ccco1,i,1%,i,1.4e-09,0.3%
C=CCc1c(C)nc(SC(C)C)[nH]c1=O,i,0%,i,3.8e-08,-0.8%
Cc1cc(C)n(Cc2ccc(C(=O)O)o2)n1,i,3%,i,7.5e-09,-0.9%
Cc1cc(C)n(Cc2ccc(C(=O)NCc3ccco3)o2)n1,i,-3%,i,2e-09,2.5%
CCN1C(=O)[C@H]2[C@H]3[C@H](O)[C@H](O)C/C(=N/O[C@@H]4O[C@@H](COC(C)=O)[C@@H](OC(C)=O)[C@@H](OC(C)=O)[C@H]4OC(C)=O)[C@@H]3CC[C@@H]2C1=O,.,-2%[11.4 µM],.,.,1.4%[11.5 µM]
Cc1ccc2c(c1)N(CCC(=O)NCc1ccco1)C(=O)CO2,i,3%,i,1e-09,-0.8%
O=C(CCc1nc(-c2ccccc2F)no1)NCCN1CCOCC1,i,-2%,i,1.1e-08,-0.9%
CC(=O)c1c(C)cc(C)c(CSc2nnc(-c3ccco3)o2)c1C,i,.,i,1e-09,-0.1%
N[C@@H](Cc1ncccn1)C(=O)O,i,-5%[11.4 µM],i,1e-09,-2.5%[11.5 µM]
C[C@@]12C[C@H](O)[C@@H]3[C@H](CCC4=CC(=O)CC[C@]43C)[C@H]1CC[C@@H]2c1csc(N)n1,i,-1%[11.4 µM],i,1.4e-09,-1.8%[11.5 µM]
CCCOc1ccccc1NC(=O)c1c(-c2ccccc2)noc1C,.,?,.,.,2.1%
O=S(=O)(Nc1ccccc1N1CCOCC1)c1ccc(Cl)s1,i,1%,i,1e-09,-2.9%
C/C(O)=C(/N=O)C(=O)Nc1ccccc1,i,-1%,i,1e-09,-0.7%
Cc1cc(NC(=O)C(C)C)ncc1NC(=O)Cc1ccccc1,i,?,i,1.9e-08,-0.7%
COC(=O)c1c(NC(=O)CN2CCN(Cc3ccc4c(c3)OCO4)CC2)sc(C)c1C,i,?,i,3.2e-08,-0.8%
COC(=O)CN1CCN(C(=O)c2ccc(F)cc2)c2ccccc2C1,i,4%,i,2.7e-08,-0.7%
COc1ccccc1CC(=O)N1CCCC1,i,3%,i,1e-09,1.1%
CS(=O)(=O)NCc1ccc(C(=O)NCc2ccccc2)cc1,i,.,i,1.4e-08,1.1%
C=CC[C@@H]1C=C[C@H](O/N=C(\C)CCN2CCc3nc(-c4ccccc4)c(-c4ccccc4)cc3C2)[C@H](CO)O1,.,6%[11.4 µM],.,.,-1.0%[11.5 µM]

# The list continues.
SMILES,A488 autofl,TSHR ag,Resorufin autofl,A647 autofl,AID923
Cn1ccnc1C(O)c1ccco1 (stereo not drawn),i,15%,i,6.3e-09,1.5%
CCOC(=O)CC(=O)CSc1ncc(C(=O)OCC)c(N)n1,i,19%,i,8.6e-08,-1.8%
COC(=O)c1ccccc1NC(=O)c1c(O)c2cccc3c2n(c1=O)CCC3,i,7%,i,3.3e-09,0.5%
Nc1nc(-c2ccccc2)c(CC(=O)O)s1,i,-1%[11.4 µM],i,1e-09,0.5%[11.5 µM]
CCC(CO)N=CC1=C(O)C(C(=O)c2ccccc2)CCC1=O (stereo not drawn),.,3%,.,.,0.3%
O=C(CN1CCOCC1)OCCCc1ccccc1,i,1%,i,1e-09,0.1%
COc1ccc(N=CC2=C(O)CCCC2=O)cc1,.,5%,.,.,3.4%
CCOC(=O)c1c(SC)nc(SC)c2c1CCC2,i,.,i,2.3e-08,.
